Rango release inh: inhibitors of RanGTP-induced Rango-importin beta complex dissociation | O95149+P62826 | Potency, µM (series often up to 46.1 µM), for the others: at the top dose activity change, negative = inhibition | Biochemical FRET Rango-importin beta, RanGTP-induced dissociation | 340,000 compounds, 0.071% hits; active means falling FRET ratio curve, often poorly fitted, with flat reads before Ran was added; inconclusive means other falling curves, or compound fluorescence or quenching; inactive means flat or rising ratio curve;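 further: potency means the concentration at half of the fitted maximal effect; % of control where 0% means no effect; nearly all actives have a fitted effect of over 45% in size; -100% = wells without RanGTP and RCC1; the record marks most hits as doubtful in a second field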
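Two FRET readings bracket the reaction: one 5 min after compound meets Rango–importin beta, another 45 min after RanGTP-RCC1 (0.6 uM Ran, 0.2 uM RCC1, 2 mM GTP) is added. Only the second defines inhibition.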
miR-21 FLuc: raises the signal of a miR-21 reporter. HeLa miR-21 FLuc reporter, luciferase, 48 h. Potency, µM (series often up to 38.3 µM), without a hit: at the top dose reporter change, positive = more light. 340,000 tested, under 10 active. AID 2288; active = well fitted rising curve with a large enough effect; inconclusive = small, poorly fitted or top-dose-only effect; inactive = no such curve, though single readings can be large or run the other way;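 further: % of control where 0% means no effect; miR-21 action dims this reporter so a rising signal means less miR-21 action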
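HeLa miR-21-FLuc reporter line, endogenous miR-21; 2000 cells/well in DMEM/10% FBS; compound titration up to ~40uM final, 48 h, 37 degree Celsius; luciferase detection reagent, 15 min lysis, CCD luminescence.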
GLA inh pH 4.5: alpha-galactosidase A (human) inhibition, pH 4.5; purified enzyme, 4-MU-alpha-Gal fluorescence, pH 4.5; 230,000 tested, under 10 active; activity change, negative = inhibition, % at 105 µM; inconclusive = small, poorly fitted or top-dose-only inhibition, or a rising curve; inactive = flat fitted curve, though single readings scatter; no compound was filed as active;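 further: 0% = full activity with enzyme and -100% = basal without enzyme; dose as in the result columns while the protocol names 77 µM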
Target sequence (P06280 whole entry, looked up): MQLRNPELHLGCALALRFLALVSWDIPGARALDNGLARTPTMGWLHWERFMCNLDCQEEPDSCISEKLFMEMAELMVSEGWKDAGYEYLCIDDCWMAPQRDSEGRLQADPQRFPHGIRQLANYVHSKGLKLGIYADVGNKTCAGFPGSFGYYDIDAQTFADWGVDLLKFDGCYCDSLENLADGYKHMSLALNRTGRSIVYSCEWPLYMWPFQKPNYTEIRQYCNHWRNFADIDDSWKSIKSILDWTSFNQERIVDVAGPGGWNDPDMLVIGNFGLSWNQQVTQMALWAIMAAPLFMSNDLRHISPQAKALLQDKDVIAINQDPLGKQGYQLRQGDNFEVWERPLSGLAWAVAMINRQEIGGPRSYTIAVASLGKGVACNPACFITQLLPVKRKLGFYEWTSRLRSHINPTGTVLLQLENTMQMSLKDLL
Rango complex inh: inhibitors of Rango-importin beta complex formation; Q14974; Rango CFP/YFP FRET sensor + importin beta, 45 min; Potency, µM (top dose mostly 92.2 µM), for inactives: at the top dose inhibition of complex formation; 340,000 compounds, 0.031% hits; active = rising FRET ratio curve, often small or poorly fitted; inconclusive = mostly compound fluorescence or quenching in the first reads; inactive = flat curves in all reads;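 further: potency means the concentration at half of the fitted maximal effect; 0% = DMSO wells and 100% = buffer wells lacking importin beta; nearly all actives have a fitted effect of over 15% in size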
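FRET biosensor Rango (snurportin 1 IBB between N-terminal EYFP and C-terminal Cerulean), 50 nM in PBS/1 mM DTT/0.02% Tween-20/0.1% BSA, preincubated 5 min RT with compound; 0.125 microM importin beta added, 45 min RT, CFP/YFP FRET ratio read.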
Active calls of the source: *; ? = inconclusive; · = not tested or not shown; & = joins results of further samples; [ ] = dose if it differs, or a comment. A portion of the library, so the mix of outcomes need not match the whole.

Sequence of screens – Rango release inh, Rango complex inh, miR-21 FLuc, GLA inh pH 4.5
(1) COc1ccc(C(=O)Nc2cc(=O)n(C)c(=O)n2C)cc1
  -5%, 7.2%, -4%, -14
(2) CCCCN(C(=O)Cn1nnc2ccccc21)C(C(=O)NCCOC)c1ccc(OC)cc1 (configuration not stated)
  -7%, 6.1%, -3%, 1
(3) O=S(=O)(NCc1cccnc1)c1ccc(Br)c2ccccc12
  -4%, -2.2%, 11%, ·
(4) CC(=O)c1ccc(NC(=O)Nc2cccnc2)cc1
  1%, 1.0%, -30%, ·
(5) CC(/C=C/C1[C@H](C)C[C@H](O[C@@H]2O[C@H](CO)[C@@H](O)[C@H](O)[C@H]2O)CC1(C)C)O[C@H]1O[C@H](CO)[C@@H](O)[C@H](O)[C@H]1O (some centres not stated)
  10%, -1.3%, ·, ·
(6) O=C1Cc2cc(S(=O)(=O)Nc3ccc(F)cc3Cl)ccc2N1
  -3%, ?, ·, ·
(7) O=C(CSc1ccc2c(c1)OCCO2)NCCN1C(=O)CSC1=O
  -18%, 1.1%, -14%, 5
(8) Cc1csc(NC(=O)CSc2ccccc2F)n1
  -8%, -0.4%, -44%, 3[21.1 µM]
(9) Cc1ccc(NC(=O)c2ccc(C)c(S(=O)(=O)N3CCOCC3)c2)nc1
  -7%, 0.4%, ·, ·
(10) CN(Cc1ccccc1)S(=O)(=O)c1ccc2c(c1)CCC(=O)N2
  1%, 1.8%, 2%, ·
(11) Cc1nn(-c2ccccc2)c(N2CCCC2)c1/C=N/NC(=O)C1CC1
  17%, ?, 9%, -3
(12) O=C(Nc1ccccc1N1CCCCC1)C1CCN(S(=O)(=O)c2ccccc2C(F)(F)F)CC1
  -4%, -2.3%, ·, ·
(13) Cc1cccc(NC(=O)C2CCCN(C(=O)NC3CCCCC3)C2)c1C (configuration not stated)
  -7%, -0.3%, 4%, 2
(14) CCOC(=O)N1CCN(CC(O)c2c[nH]c3ccc(OC)cc23)CC1 (configuration not stated)
  1%, -1.8%, -1%, ·
(15) CCOc1ccc(C(=O)Nc2ccc(NC(=O)c3ccco3)c(Cl)c2)cc1Cl
  -3%, -0.2%, -3%, -9
(16) COc1ccccc1C(=O)NCCC(=O)N1CCN(c2ccccc2Cl)CC1
  -4%, 1.3%, ·, ·
(17) Cc1cccc(N2CCN(S(=O)(=O)c3cc(-c4cc(C)no4)ccc3C)CC2C)c1 (configuration not stated)
  2%, 1.8%, 25%, ·
(18) COc1ccccc1C(=O)Nc1ccc(NC(=O)c2ccco2)cn1
  -3%, -2.4%, -54%, ·
(19) COc1ccccc1NC(=S)N1CC(C)(C)C1=O
  4%, -1.7%, 0%, ·
(20) CC(C)(C)OC(=O)NCCCCCO
  -9%, 0.2%, ·, ·
(21) CCOCc1cn(CC(=O)c2ccc(Cl)cc2)c(C)nc1=N
  -14%, 0.7%, -8%, 7
(22) CC(=O)Nc1ccc(S(=O)(=O)NC2(C(F)(F)F)NC(=O)N(CC(C)C)C2=O)cc1 (configuration not stated)
  0%, 0.2%, 1%, 0
(23) CSc1ccccc1C(=O)Nc1ccc2c(c1)CCC2
  0%, -1.2%, -62%, ·
(24) NC(=O)CC(NC(=O)Cc1ccc(Br)cc1)c1ccc(NCc2ccc(F)c(F)c2)c([N+](=O)[O-])c1 (configuration not stated)
  8%, 0.2%, 13%, -27
(25) C=CCn1cc(C(=O)NCc2ccc(Cl)cc2)c(=O)c2cc(S(=O)(=O)N(CC)CC)ccc21
  5%, 3.5%, -7%, 3
(26) Cc1ccc(S(=O)(=O)N2CCC(=O)N(CCOC(=O)Nc3cc(C)cc(C)c3)CC2)cc1
  -10%, 2.7%, -17%, -29&-12
(27) COc1ccc(S(=O)(=O)Nc2nc3ccccc3s2)cc1OC
  4%, -7.1%, -18%, -3
(28) Cc1ccc(OCCNC(=O)CNC(=O)c2ccc(Cl)c([N+](=O)[O-])c2)cc1
  15%, 2.7%, ·, ·
(29) CC12C(=O)N(Cc3ccccc3)C(=O)C1C1C=CC2C1 (configuration not stated)
  16%, 2.2%, -10%, 14
(30) COc1cc(/C=C/C(=O)O)ccc1OS(=O)(=O)c1cc(Br)ccc1C
  -6%, -2.3%, ·, ·

Further records follow.
Sequence of screens – Rango release inh, Rango complex inh, miR-21 FLuc, GLA inh pH 4.5
(31) CC(C)OCCCNc1ncnc2c1nc1n2CCCC1
  4%, -4.5%, -21%, ·
(32) Cc1ccc(-c2nn3c(C)nnc3c3ccccc23)cc1S(=O)(=O)N(C)CCO
  0%, 0.1%, -12%, 5
(33) COC(=O)C1=C(NC(=O)COc2ccc3ccccc3c2)CCS1
  -13%, 0.0%, -11%, 12
(34) Cc1ccc(C(=O)NNS(=O)(=O)c2ccccc2[N+](=O)[O-])cc1
  1%, 3.8%, -3%, -5
(35) O=C(CSc1ccc(Cl)cc1)N/N=C/c1ccc([N+](=O)[O-])o1
  -4%, ?, 25%, ·
(36) COCCn1c(SCc2ccc(C(=O)OC)o2)nc2cc(Cl)ccc2c1=O
  1%, 2.9%, -8%, 0
(37) COc1cc(/C=C(\C#N)c2nc3ccccc3o2)ccc1O
  ?, ?, -8%, -11
(38) Cc1ccc(/C=C/S(=O)(=O)NCC(=O)O)cc1
  -5%, -2.0%, -1%, -16
(39) Cc1ccc(N2C(=O)C3C4C=CC(CNC(=S)Nc5ccc(Cl)cc5)(O4)C3C2=O)cc1 (configuration not stated)
  -2%, 1.1%, 6%, 1
(40) COc1cccc(C2/C(=C(\O)c3ccc4c(c3)OCCO4)C(=O)C(=O)N2CC2CCCO2)c1 (configuration not stated)
  -5%, -1.7%, -2%, ·
(41) COc1cc2c(cc1OC)CN(S(=O)(=O)c1cccc(F)c1)CC2
  -8%, 0.8%, -2%, ·
(42) Cc1noc(C)c1CSc1nnc(-c2ccccc2)n1N
  5%, 3.9%, 0%, -4
(43) COCc1nnc(NS(=O)(=O)c2ccc(Cl)cc2)s1
  0%, 4.7%, -3%, ·
(44) COC(=O)COc1cccc(NC(=O)c2ccccc2)c1
  1%, -5.4%, -4%, 1
(45) Cc1cccn2cc(-c3ccc(NC(=O)Cc4ccccc4)cc3)nc12
  ?, ?, -4%, 0
(46) CCCCN=C(Nc1ccc(Cl)cc1)c1cccnc1
  -12%, ?, -17%, 1
(47) CCCCCCSc1ccc(-c2nc3ccc(Cl)cn3c2NCc2ccccc2)cc1
  ?, ?, ·, ·
(48) CCOC(=O)c1c(C)c(C(=O)NCC2CCCO2)c(C)n1C (configuration not stated)
  -2%, 0.7%, -12%, 1
(49) Nc1ccc(Oc2ccc3c(c2)C(=O)NC3=O)cc1
  12%, 0.6%, -1%, ·
(50) COC(=O)CNC(=O)c1ccc(OC2CCN(C(=O)C3CC3)CC2)cc1
  18%, 0.3%, 0%, 4
(51) CC(C)(C)C(=O)NC(=S)Nc1ccc(S(=O)(=O)Nc2nccs2)cc1
  1%, -2.8%, -4%, -1
(52) Cc1cc(C)cc(OCC(=O)OCC(=O)N(CC(C)C)c2c(N)n(Cc3ccccc3)c(=O)[nH]c2=O)c1
  -15%, ?, ·, ·
(53) O=Cc1cn(-c2ccc(F)cc2)c2ccccc12
  0%, -4.8%, -19%, 1
(54) CS(=O)(=O)N(CC(=O)O)c1ccc(C23CC4CC(CC(C4)C2)C3)cc1
  1%, -0.4%, -13%, ·
(55) COc1cc(NC(=O)COc2ccc3c(C)cc(=O)oc3c2C)cc(OC)c1OC
  -5%, 4.8%, 0%, ·
(56) CN1CCN(NC(=O)c2ccc(S(=O)(=O)N3CCCCCC3)cc2)CC1
  -5%, 2.5%, -1%, -6
(57) O=C1C2C3C=CC(C3)C2C(=O)N1CCCO (configuration not stated)
  0%, -0.3%, -3%, -4
(58) Cc1cccc(C)c1OCC(=O)N1CCc2ccccc2C1
  16%, -0.4%, -26%, ·
(59) Cc1ccc(S(=O)(=O)N2CCN(C(=O)CN3CCCCC3)C2)cc1
  0%, 1.9%, 1%, 5
(60) Cc1nc2cc(NC(=O)NCCCO)ccc2o1
  3%, ?, -7%, 6

The listing continues:
Sequence of screens – Rango release inh, Rango complex inh, miR-21 FLuc, GLA inh pH 4.5
(61) COC(=O)/C=C1/N/C(=N\c2nc(C)cc(C)n2)N(c2cccc(C)c2)C1=O
  -3%, -1.1%, -15%, 4
(62) COc1ccc(/C=N/NC(=O)C2(O)c3ccccc3-c3ccccc32)cc1
  2%, 2.0%, -4%, -4
(63) COc1ccc(N2CC(C)(C)C2=O)cc1
  -5%, 0.0%, -6%, -3
(64) O=C(CSc1cccc[n+]1[O-])NC(=O)c1ccc(OC(F)F)cc1
  0%, 0.7%, 1%, 2
(65) CCOC(=O)c1ccc(N2C(=O)CC(N3CC(C)OC(C)C3)C2=O)cc1 (configuration not stated)
  -11%, 0.6%, -6%, 7
(66) CC(c1nc2ccccc2c(=O)[nH]1)N(C)CCOc1ccc(Cl)cc1 (configuration not stated)
  -3%, -1.0%, -1%, -5
(67) Cc1sc2ncnc(N3CCC(C(=O)NNC(=O)c4ccccc4Cl)CC3)c2c1C
  -9%, 0.2%, 29%, ·
(68) COc1ccc(OC)c(C(C)NC(=O)c2ccc(Br)cc2)c1 (configuration not stated)
  0%, -3.7%, -5%, 0
(69) Cc1ccc(-c2nnn(CC(=O)N(C)C3CCCCC3)n2)o1
  -7%, 0.5%, -10%, 5
(70) CCN1C[C@@H]2[C@@H]3C(=O)N(C)C(=O)[C@@H]3[C@](C)(C1=O)N2C(=O)c1ccc(C(C)(C)C)cc1
  -26%, -0.7%, ·, ·
(71) CCOC(=O)c1c(NC(=O)CCS(=O)(=O)c2ccccc2)sc2c1CCN(C)C2
  ?, ?, -6%, ·
(72) CCCc1ccc(C(C)NC(=O)c2cnccn2)cc1 (configuration not stated)
  -14%, 0.7%, 3%, 5
(73) COc1ccc(C(C)=O)cc1COc1nc(C)nc2ccccc12
  -16%, -2.8%, -7%, -1
(74) Cn1c(=O)oc2cc(S(=O)(=O)N3CCCC3)ccc21
  -2%, -2.9%, -3%, -2
(75) O=C(O)Cn1ncn(-c2ccc(OC(F)(F)F)cc2)c1=O
  -12%, -3.9%, -2%, 0
(76) CC1CCN(S(=O)(=O)c2ccc(NC(=O)C3CC3)cc2)CC1
  0%, -2.0%, -2%, ·
(77) O=C(CSc1nnc(-c2cccs2)n1Cc1ccccc1)NCc1ccc2c(c1)OCO2
  18%, -1.6%, 1%, -2
(78) O=C(/C=C/c1ccccc1[N+](=O)[O-])Nc1cc(S(=O)(=O)N2CCOCC2)ccc1N1CCOCC1
  -3%, 3.0%, ·, ·
(79) O=S(=O)(Nc1nc(CN2CCOCC2)nc2sc3c(c12)CCCC3)c1cc(F)ccc1F
  -11%, -1.0%, -2%, -2
(80) CCCOC(=O)c1ccc(NC(=O)C(CC)CC)cc1
  1%, -1.8%, -56%, -6
(81) Brc1ccc(-c2nnc(-c3ccccc3)c(N3CCSCC3)n2)cc1
  0%, -0.5%, -28%, -1
(82) Cc1ccc(NC(=O)Cn2nnc(C(=O)NCc3cccs3)c2N)cc1F
  -1%, 0.9%, -4%, ·
(83) CC(NC(=O)CC(O)(C(F)(F)F)C(F)(F)F)c1ccccc1 (configuration not stated)
  11%, -1.2%, -1%, 9
(84) Cc1nc2cc3ccccc3cc2s1
  -21%, -0.8%, ·, ·
(85) Cc1ccc(S(=O)(=O)N2CCN(C(=O)/C=C/c3ccccc3)CC2)cc1C
  10%, 2.8%, ·, ·
(86) COc1cc(/C=C/C(=O)OCC(=O)NC(=O)NC(C)(C)C)ccc1O
  ?, ?, 7%, -4
(87) CCOC(=O)NC(=O)C(=CNc1ccccc1C)C(=O)NC(=O)OCC
  0%, -0.2%, -2%, 4
(88) Cc1cc(C)c(S(=O)(=O)Nc2cccc(S(=O)(=O)N3CCOCC3)c2)c(C)c1
  -1%, -2.2%, -2%, ·
(89) Cc1ccccc1-n1cnnc1SCC(=O)Nc1cccnc1Cl
  3%, -2.3%, 1%, -10
(90) COCCN(C(=O)COC(=O)Cc1c(C)nc2ccccc2c1C)c1c(N)n(CC(C)C)c(=O)[nH]c1=O
  -3%, 5.1%, ·, ·
(91) CCCC(=O)c1ccc(N2CCN(C(=O)c3cccs3)CC2)c(F)c1
  -17%, -3.2%, -8%, ·

Bioassay records (PubChem)
